StopGo reporter = FMDV 2A StopGo reporter, luciferase signal; human cells with a luciferase reporter of 2A StopGo recoding; control for the full effect not named in the record; Potency, µM (top dose mostly 57.9 µM), inactives show at the top dose signal change, negative = less light; 410,000 compounds, 1.2% hits; active = well fitted falling curve with a large enough effect; inconclusive = small, poorly fitted or top-dose-only effect; inactive = no such curve, though single readings can be large or run the other way; tested in HEK293T cells; note: % is set by controls: 0 for no effect and ±100 for the full control effect; nearly all actives have a fitted effect of over 45% in size; luciferase light after 4 h
Cruzain inh noDet = blocks cruzain activity in detergent-free assay. P25779. 200,000 compounds, 2.3% hits. purified cruzain, Z-FR-AMC fluorescence, no detergent. Potency, µM, inactives show max response, negative = inhibition, hits mostly inhibitors;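 note: plate controls were enzyme without inhibitor for no effect and buffer without enzyme for full effect; nearly all actives have a fitted effect of over 40% in size; top concentration of the series not given in the record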
Target sequence (P25779 123-467 limits assumed): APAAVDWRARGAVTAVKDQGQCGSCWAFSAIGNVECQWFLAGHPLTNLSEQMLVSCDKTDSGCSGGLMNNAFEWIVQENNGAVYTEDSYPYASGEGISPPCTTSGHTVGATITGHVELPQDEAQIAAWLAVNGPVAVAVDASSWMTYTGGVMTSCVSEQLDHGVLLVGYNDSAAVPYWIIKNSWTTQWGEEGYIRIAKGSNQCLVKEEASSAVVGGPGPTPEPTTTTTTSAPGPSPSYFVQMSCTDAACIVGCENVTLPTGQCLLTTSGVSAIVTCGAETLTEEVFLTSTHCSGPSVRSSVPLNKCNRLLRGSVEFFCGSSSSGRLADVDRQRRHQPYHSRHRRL
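Detergent-free condition (0.00005% Triton X-100) in acetate buffer pH 5.5 with DTT. 1.5 nM enzyme and compound were pre-mixed 15 min, then 2 uM Z-FR-AMC substrate added; reaction progress from fluorescence change between first and third reads (60 s).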
Lassa entry inh = inhibitors of Lassa virus binding or cell entry. 300,000 compounds, 1.2% hits. Potency, µM (series often up to 37.9 µM), for inactives: at the highest dose activity change, negative = inhibition, usual class: inhibitors. Lassa virus pseudotype entry inhibition, cell reporter; control for the full effect not named in the record. AID 540256; active means well fitted inhibition curve with a large enough effect; inconclusive means small, poorly fitted or top-dose-only effect, or effect the other way; inactive means flat fitted curve, though single readings scatter; tested in HEK293 cells; note: % is set by controls: 0 for no effect and ±100 for the full control effect; nearly all actives have a fitted effect of over 50% in size; luciferase read-out
SARS PLpro yeast = blocks SARS-CoV papain-like protease in a yeast assay | S. cerevisiae expressing SARS-CoV PLpro, growth rescue; control for the full effect not named in the record | Potency, µM (series often up to 32.9 µM), without a hit: at the top dose activity, positive = growth rescue | 330,000 compounds, 0.19% hits; active means well fitted rising curve with a large enough effect; inconclusive means small, poorly fitted or top-dose-only effect; inactive means no such curve, though single readings can be large or run the other way; note: 0% is about no effect; nearly all actives have a fitted effect of over 55% in size; growth read by luminescence after 48 h
Marburg entry inh = inhibitors of Marburg virus binding or cell entry; Marburg virus pseudotyped entry inhibition, cell reporter; control for the full effect not named in the record; about a third of the inactives were read at about 46 µM; Potency, µM (titrated, usually from 37.8 µM), for inactives: top-dose activity change, negative = inhibition, most hits filed as inhibitors; 300,000 compounds, 1.8% hits; active = well fitted inhibition curve with a large enough effect; inconclusive = small, poorly fitted or top-dose-only effect, or effect the other way; inactive = flat fitted curve, though single readings scatter; tested in HEK293 cells; about a fifth of its hits are not listed in these tables; note: % is set by controls: 0 for no effect and ±100 for the full control effect; luciferase read-out
NS1 inh = blocks influenza NS1 protein function. S. cerevisiae slowed by influenza A NS1, growth recovery by OD600. Potency, µM (doses to about 46.1 µM), inactives show at the top dose activity, positive = more growth. 270,000 compounds, 0.4% hits; active means well fitted rising curve with a large enough effect; inconclusive means small, poorly fitted or top-dose-only effect; inactive means no such curve, though single readings can be large or run the other way; note: nearly all actives have a fitted effect of over 50% in size
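S. cerevisiae expressing influenza A NS1, grown in glucose, washed, then diluted 1:100 into pH 6.0 -URA galactose medium with 23 nl compound. Growth recovery read as OD600; NS1-free strain serves as control.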
RE007 growth inh = less growth of the S. pombe RE007 Vpr strain; S. pombe RE007 Vpr strain, BacTiter-Glo ATP luminescence, 24 h; control for the full effect not named in the record; Potency, µM (highest dose often 92.2 µM), for the others: at the highest dose activity change, negative = less growth; 360,000 compounds, 0.21% hits; active = well fitted falling curve with a large enough effect; inconclusive = small, poorly fitted or top-dose-only effect; inactive = no such curve, though single readings can be large or run the other way;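 note: % is set by controls: 0 for no effect and ±100 for the full control effect; nearly all actives have a fitted effect of over 50% in size; the assay follows cell death caused by Vpr and the record does not say whether a fall means rescue or toxicity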
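Fission yeast RE007 carrying one integrated HIV-1 vpr copy, seeded at OD 0.01 in PMG+AL medium with 23 nL pinned compound. Grown 24 h at 30 degrees; viability read by BacTiter-Glo luminescence after 5 min.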
Cruzain Triton = inhibitors of Trypanosoma cruzi cruzain with detergent | purified cruzain, Z-FR-AMC fluorescence, 0.01% Triton | AID 1478 | Potency, µM, without a hit: max response, negative = inhibition, hits mostly inhibitors | P25779 | 200,000 compounds, 0.43% hits;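 note: plate controls were neutral wells for no effect and buffer without enzyme for full effect; nearly all actives have a fitted effect of over 40% in size; top concentration of the series not given in the record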
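Z-FR-AMC hydrolysis (2 uM substrate) by cruzain (1.5 nM) monitored kinetically at ex 360/em 450 nm after 15 min room-temperature compound exposure; 0.01% Triton X-100, pH 5.5, 5 mM DTT.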
Numbers without * were called inactive; ? = inconclusive; nt = no result given; [ ] = another dose, or the depositor's remark. Unless noted, calls come from the whole dose curve; as a rule, active = well fitted curve in the direction sought with a large enough effect; inconclusive = small, poorly fitted or top-dose-only effect, or another doubt; inactive = no such curve, though single readings can be large; an effect the other way counts as inactive or inconclusive. Potency is the fitted concentration of half-maximal effect.

SMILES | StopGo reporter | Cruzain inh noDet | Lassa entry inh | SARS PLpro yeast | Marburg entry inh | NS1 inh | RE007 growth inh | Cruzain Triton
CCN(CC)S(=O)(=O)c1cccc(C(=O)NCC2CCCO2)c1 (stereo not drawn) | nt | -2% | 28% | 5% | 4% | 1% | 0% | 4.5%
COC(C[C@H](O)C[C@@H](O)[C@H](C)OCc1ccccc1)OC | -1% | nt | nt | 1% | nt | -4% | -17% | nt
CC1(NC(=O)N2CCOCC2)CCS(=O)(=O)C1 (stereo not drawn) | nt | -6% | -6% | 8% | -1% | -3% | -2% | 3.6%
CCOC(=O)c1ccccc1Oc1c(F)c(F)nc(NCCO)c1F | 0% | 8% | -11% | -13% | -7% | -168% | 8% | -4.5%
COCCNC(=O)NC1(C(F)(F)F)Oc2ccc(Cl)cc2O1 (stereo not drawn) | ? | -9% | ? | 3% | ? | -8% | 2% | 2.1%
COc1ccc(Cl)cc1S(=O)(=O)NCc1cccs1 | 83%[activator] | 1% | 0% | 2% | 1% | -7% | -10% | -1.8%
NC(=O)Cn1nc([N+](=O)[O-])nc1Oc1ccccc1C(=O)N1CCOCC1 | -11% | nt | nt | 0% | 0%[46.1 µM] | nt | 15% | nt
O=C(NC1CCSc2ccccc21)c1cccc([N+](=O)[O-])c1 (stereo not drawn) | 0% | nt | nt | 6% | nt | 3% | 4% | nt
COc1cc2c(cc1OC)C(c1ccccc1C(F)(F)F)CC(=O)N2 (stereo not drawn) | -9% | nt | -11%[46.1 µM] | 12% | ? | ? | -17% | nt
CCN(CC)S(=O)(=O)c1ccc(-c2cn3ccc(C)cc3n2)cc1 | 73%[activator] | nt | nt | -2% | nt | -1% | -25% | nt
COc1ccccc1/C=C/C(=O)Nc1ccc2c(c1)OCCO2 | 8% | -30% | ? | -60% | ? | -49% | -2% | -9.5%
Cc1c(C(=O)N(C)C)sc2c1c(=O)n(-c1ccc(F)cc1)c(=O)n2CC(=O)N(C)c1ccccc1 | 6% | 5% | 7%[46.1 µM] | nt | nt | nt | nt | 1.4%

An excerpt from above in order of molecular weight, low to high:
SMILES | StopGo reporter | Cruzain inh noDet | Lassa entry inh | SARS PLpro yeast | Marburg entry inh | NS1 inh | RE007 growth inh | Cruzain Triton
CCN(CC)S(=O)(=O)c1cccc(C(=O)NCC2CCCO2)c1 (stereo not drawn) | nt | -2% | 28% | 5% | 4% | 1% | 0% | 4.5%
CCN(CC)S(=O)(=O)c1ccc(-c2cn3ccc(C)cc3n2)cc1 | 73%[activator] | nt | nt | -2% | nt | -1% | -25% | nt
Cc1c(C(=O)N(C)C)sc2c1c(=O)n(-c1ccc(F)cc1)c(=O)n2CC(=O)N(C)c1ccccc1 | 6% | 5% | 7%[46.1 µM] | nt | nt | nt | nt | 1.4%

Looked up above:
Under Lassa entry inh, COc1cc2c(cc1OC)C(c1ccccc1C(F)(F)F)CC(=O)N2 (stereo not drawn) reads -11%[46.1 µM]
Under SARS PLpro yeast, CCN(CC)S(=O)(=O)c1ccc(-c2cn3ccc(C)cc3n2)cc1 reads -2%
Under Cruzain Triton, COc1ccc(Cl)cc1S(=O)(=O)NCc1cccs1 reads -1.8%
Under Marburg entry inh, CCN(CC)S(=O)(=O)c1cccc(C(=O)NCC2CCCO2)c1 (stereo not drawn) reads 4%
Under SARS PLpro yeast, COc1ccccc1/C=C/C(=O)Nc1ccc2c(c1)OCCO2 reads -60%
Under Lassa entry inh, CC1(NC(=O)N2CCOCC2)CCS(=O)(=O)C1 (stereo not drawn) reads -6%

Next section.
SMILES | StopGo reporter | Cruzain inh noDet | Lassa entry inh | SARS PLpro yeast | Marburg entry inh | NS1 inh | RE007 growth inh | Cruzain Triton
CCn1c(CSc2nnc(-c3ccncc3)n2C)nc2cc(C(=O)O)ccc21 | 3% | nt | 9% | -3% | 1%[46.1 µM] | -1% | 6% | nt
C=CCn1c(C23CC4CC(CC(C4)C2)C3)n[nH]c1=S | ? | nt | ? | 11µM* | 3% | 20% | 19% | nt
CCc1ccccc1NC(=S)N(CCN(C)C)C(C)c1ccccn1 (stereo not drawn) | -1% | 0% | 13% | -1% | -18% | -1% | -16% | -1.5%
CSc1ccc(CCNC(=O)c2c(C)oc3ncn(C)c(=O)c23)cc1 | -14% | 8% | -9%[46.1 µM] | nt | nt | nt | nt | -1.5%
N#CC(Sc1ccccn1)c1ccc(Cl)cc1Cl (stereo not drawn) | -27% | nt | -3% | -3% | -21%[46.1 µM] | 3% | -29% | nt
COc1ccc(OCC(=O)N2CCN(Cc3ccc4c(c3)OCO4)CC2)cc1 | -19% | nt | ? | -1% | -43%[46.1 µM] | -1% | 9% | nt
CCOC(=O)c1c(P(=O)(N2CCOCC2)N2CCOCC2)noc1N | -19% | 4% | -6% | -5% | -8% | -1% | 5% | 11%
O=C(c1ccccc1F)N1CCN(S(=O)(=O)c2ccc(S(=O)(=O)N3CCCCC3)cc2)CC1 | nt | 24% | -12% | 1% | -21% | -31% | 9% | 0.7%
CCOc1ccc(C(=O)Nc2c3c(nn2-c2cccc(Cl)c2)CS(=O)C3)cc1 (stereo not drawn) | -21% | 6% | 4% | 5% | 14% | -2% | -4% | -2.1%
COc1ccc(S(=O)(=O)Nc2cccc(-n3cnnn3)c2)cc1OC | 28% | nt | nt | 9% | nt | -3% | 13% | nt
CCOC(=O)c1sc(NC(=O)c2cccnc2)c(C#N)c1C | -12% | 11% | 21% | -7% | 20% | -87% | 48% | -6.9%
COc1ccc(S(=O)(=O)NC2CCCCC2)cc1C(=O)N1CCCCC1 | 67%[activator] | nt | ? | -6% | 5% | 5% | -1% | nt
Cc1cc(=O)oc2cc(NC(=S)NNC(=O)c3c(Cl)cnn3C)ccc12 | 28% | nt | -4% | -8% | 8% | -9% | -1% | nt
c1ccc(CNc2nc(-c3ccccc3)nc3ccccc23)cc1 | -6% | nt | 22%[46.1 µM] | -15% | ? | -144% | ? | nt
CN(C)/C=C(\C#N)C(=O)c1cccc(Oc2ccc(Br)cc2)c1 | 7% | ? | 1% | 2% | 10%[46.1 µM] | -19% | 33% | -6.4%
CN(CC(=O)Nc1ccccc1Cl)C(=O)CCc1nc2ccccc2c(=O)[nH]1 | -6% | nt | 1% | -2% | 13%[46.1 µM] | nt | 9% | nt
COCC(=O)Nc1cc(C)cn(Cc2c(F)cccc2Cl)c1=O | -5% | nt | 0%[46.1 µM] | 8% | -13%[46.1 µM] | ? | -1% | nt
COc1ccc(CN2CCN(C(=O)COc3cccc(C)c3)CC2)c(OC)c1 | -16% | -7% | 9% | 0% | -22% | -2% | 3% | 3.6%
COc1ccc([N+](=O)[O-])cc1NC(=O)C1C2C=CC(C2)C1C(=O)O (stereo not drawn) | -11% | nt | -11%[46.1 µM] | 1% | -1%[46.1 µM] | 4% | -4% | nt
O=c1[nH]c(=O)n(Cc2ccco2)c2c1C(C(F)(F)F)(C(F)(F)F)N=C(c1ccco1)N2 | -7% | -7% | -6% | ? | 5% | 20% | 16% | -1.5%
Cc1ccc(-c2noc(C3CCCN(S(=O)(=O)c4ccc5ccccc5c4)C3)n2)o1 (stereo not drawn) | nt | -13% | 5% | -7% | 5% | 0% | -11% | -1.4%
O=C(c1ccccc1)C(CN1CCCC1)c1ccccc1 (stereo not drawn) | 3.5µM* | -6% | 7.9µM* | -46% | 7.1µM* | -28% | ? | -1.2%
O=C1c2ccccc2C(=O)N1CCOc1ccc(F)cc1 | 80%[activator] | nt | nt | 15% | nt | -18% | 5% | nt
COc1ccc2cc(C(=O)C3CCCN(Cc4cnc(C)s4)C3)ccc2c1 (stereo not drawn) | 0% | nt | ? | 1% | -36%[46.1 µM] | -5% | 1% | nt
O=C1CC(C(=O)Nc2ncccn2)C(c2ccccc2)O1 (stereo not drawn) | -11% | -11% | 0% | 5% | -9% | 6% | -5% | 6.1%
CCOC(=O)Cc1csc(NC(=O)COc2ccccc2OC)n1 | nt | 5% | 3% | -3% | 0% | -17% | 8% | 4.9%
O=C(NCCN1CCOCC1)C1CCC(CNS(=O)(=O)c2ccc(Cl)cc2)CC1 (stereo not drawn) | nt | 6% | 18% | -2% | 4% | -4% | 8% | 1.7%
CSc1nsc(/C=C/Nc2ccc(Cl)cc2)c1C#N | 25% | ? | 16% | -5% | -2% | 13% | -1% | -21%
COC(=O)CCC(=O)OC1(C)C(=O)C=C2C=C(C3CC3)N(C3CC3)C=C2C1=O (stereo not drawn) | -10% | nt | nt | -1% | nt | -1% | 10% | nt
C=CCNC(=S)Nc1sc2c(c1C(=O)OCC)CC(C(C)C)OC2 (stereo not drawn) | -28% | 27% | 34%[14.3 µM] | 3% | -26% | 1% | -7% | 6.0%
Cc1cccc(NC(=O)Cn2nc(C)c3nn(-c4ccc(Cl)cc4)c(C)c3c2=O)c1C | -26% | 5% | -6%[46.1 µM] | nt | nt | nt | nt | 2.1%
CN(Cc1ccccc1)C(=O)C(=O)c1cn(CC(=O)N2CCCC2)c2ccccc12 | 38%[activator] | nt | -24%[46.1 µM] | 1% | 9%[46.1 µM] | -3% | 4% | nt
CCN(c1nc(N)c(C(=O)N=C(N)N)nc1Cl)C(C)C | -29% | 9% | ? | nt | 14µM* | -13% | -13%[18.4 µM] | -8.5%
O=C(NC(=S)Nc1ccc(F)c([N+](=O)[O-])c1)c1ccccc1F | 13% | nt | ? | 0% | ? | nt | -15% | nt
CCOC(=O)c1c(-c2ccccc2)csc1NC(=O)c1nc(SCC)ncc1Cl | -19% | -4% | 25%[46.1 µM] | nt | nt | nt | nt | -1.9%
Cc1cc(-c2c(C)[nH]n(-c3ccc(Cl)cc3)c2=O)n[nH]1 | 0% | -2% | 25% | ? | 7% | -186% | -20% | 4.3%
Cc1nc(-c2noc(-c3ccc(Cl)cc3)n2)c(C(F)(F)F)o1 | 52%[activator] | nt | ? | 0% | ? | -3% | -6% | nt
CCN(CC)c1cc(C)c2cc(NC(=O)c3cccs3)ccc2n1 | 0% | nt | ? | 7% | ? | nt | 2% | nt
CCOc1ccccc1NC(=O)c1ccc(C(=O)Nc2ccccc2OCC)cc1 | 0% | 2% | -22%[46.1 µM] | nt | nt | nt | nt | 0.3%

Source: PubChem BioAssay
